Rango dissoc inh = inhibitors of RanGTP-induced Rango-importin beta complex dissociation. O95149+P62826. Biochemical FRET Rango-importin beta, RanGTP-induced dissociation. Potency, µM (top dose mostly 46.1 µM), for inactives: at the highest dose activity change, negative = inhibition. 340,000 tested, 0.071% active. AID 540253; active means falling FRET ratio curve, often poorly fitted, with flat reads before Ran was added; inconclusive means other falling curves, or compound fluorescence or quenching; inactive means flat or rising ratio curve;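 note: potency is the fitted concentration of half-maximal effect; % of control where 0% means no effect; nearly all actives have a fitted effect of over 45% in size; -100% = wells without RanGTP and RCC1; the record marks most hits as doubtful in a second field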
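Rango (0.1 uM)–importin beta (0.25 uM) complex; RanGTP-RCC1 trigger; 45 min RT; CFP/YFP FRET read.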
Rango-impB inh = prevents formation of the Rango-importin beta complex; Q14974; Rango CFP/YFP FRET sensor + importin beta, 45 min; Potency, µM (doses to about 92.2 µM), without a hit: at the top dose inhibition of complex formation; 340,000 tested, 0.031% active; AID 540263; active = rising FRET ratio curve, often small or poorly fitted; inconclusive = mostly compound fluorescence or quenching in the first reads; inactive = flat curves in all reads;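 note: potency is the fitted concentration of half-maximal effect; 0% = DMSO wells and 100% = buffer wells lacking importin beta; nearly all actives have a fitted effect of over 15% in size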
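FRET biosensor (snurportin 1 IBB flanked by EYFP and cerulean), 50 nM, with compound 5 min, then 0.125 microM importin beta in PBS, 1 mM DTT, 0.02% Tween-20, 0.1% BSA. CFP/YFP ratio read after 45 min at room temperature; pre-read flags interference.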
GLA inh pH 4.5 = blocks human alpha-galactosidase A at pH 4.5 | AID 1467 | activity change, negative = inhibition, % at 105 µM | purified enzyme, 4-MU-alpha-Gal fluorescence, pH 4.5 | P06280 | 230,000 tested, under 10 active; inconclusive = small, poorly fitted or top-dose-only inhibition, or a rising curve; inactive = flat fitted curve, though single readings scatter; no compound was filed as active;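 note: 0% = full activity with enzyme and -100% = basal without enzyme; dose as in the result columns while the protocol names 77 µM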
Target sequence (P06280 whole entry, looked up): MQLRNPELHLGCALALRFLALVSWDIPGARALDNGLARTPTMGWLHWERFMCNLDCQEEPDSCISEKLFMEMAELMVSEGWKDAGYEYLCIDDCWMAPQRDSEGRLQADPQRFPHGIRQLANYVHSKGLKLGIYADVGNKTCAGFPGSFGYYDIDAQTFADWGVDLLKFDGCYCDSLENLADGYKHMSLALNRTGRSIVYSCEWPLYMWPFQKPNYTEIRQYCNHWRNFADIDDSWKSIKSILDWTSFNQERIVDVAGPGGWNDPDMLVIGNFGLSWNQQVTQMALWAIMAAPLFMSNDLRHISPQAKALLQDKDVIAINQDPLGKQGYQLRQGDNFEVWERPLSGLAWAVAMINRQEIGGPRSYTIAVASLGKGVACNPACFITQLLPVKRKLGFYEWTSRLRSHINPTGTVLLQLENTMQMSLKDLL
miR-21 reporter = raises the signal of a miR-21 reporter. 340,000 tested, under 10 active. AID 2288. Potency, µM (series often up to 38.3 µM), without a hit: at the top dose reporter change, positive = more light. HeLa miR-21 FLuc reporter, luciferase, 48 h; active = well fitted rising curve with a large enough effect; inconclusive = small, poorly fitted or top-dose-only effect; inactive = no such curve, though single readings can be large or run the other way;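 note: % of control where 0% means no effect; miR-21 action dims this reporter so a rising signal means less miR-21 action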
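HeLa miR-21-FLuc reporter line, endogenous miR-21; 2000 cells/well in DMEM/10% FBS; compound titration up to ~40uM final, 48 h, 37 degree Celsius; luciferase detection reagent, 15 min lysis, CCD luminescence.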
The depositor's hits bear a star; & = joins results of further samples. The list is partial; the hit share may differ from the screen's.

Screening CCN(C(=O)CSc1ncnc2c1cnn2-c1ccccc1)C1CCS(=O)(=O)C1 (centres undefined) returned Rango dissoc inh 9% and Rango-impB inh 0.9%.
For O=C(Nc1ccc(N2CCOCC2)cc1)C1CC1 the results were Rango dissoc inh 1%, Rango-impB inh inconclusive, GLA inh pH 4.5 7 and miR-21 reporter -17%.
O=C(c1cc(-c2ccccc2Cl)nc2ccccc12)N1CCN(c2ccccc2O)CC1 was read as Rango dissoc inh 17% and Rango-impB inh 0.1%.
Screening O=c1cc(O)c2sc3nc(-c4ccccc4)cc(C(F)(F)F)c3c2[nH]1 returned Rango dissoc inh inconclusive, Rango-impB inh inconclusive, GLA inh pH 4.5 4 and miR-21 reporter -12%.
For C#CCn1ccc(O)c(Cc2ccccc2)c1=O the results were Rango dissoc inh -9%, Rango-impB inh 0.2% and miR-21 reporter 0%.
COc1ccc(N2CCN(C(=O)c3ccc(CS(=O)(=O)c4ccccc4C)o3)CC2)cc1 was read as Rango dissoc inh 15%, Rango-impB inh 2.5% and miR-21 reporter 11%.
For CCCc1cc(Nc2ccccc2OCC)n2ncnc2n1 the results were Rango dissoc inh 2%, Rango-impB inh -1.1%, GLA inh pH 4.5 4 and miR-21 reporter -4%.
Screening COc1ccc(C(=O)Nc2ccccc2C(=O)NCc2cccnc2)cc1OC returned Rango dissoc inh 14%, Rango-impB inh -0.3% and miR-21 reporter -6%.
Cc1ccc(S(=O)(=O)c2nnn3c2nc(N2CCOCC2)c2ccccc23)cc1 was read as Rango dissoc inh -1%, Rango-impB inh -0.3% and miR-21 reporter -1%.
Screening CC1CCN(c2ccc3nnc(CCC(=O)NCc4ccco4)n3n2)CC1 returned Rango dissoc inh 18%, Rango-impB inh inconclusive and miR-21 reporter -1%.

Not a retest: two of the compounds above.
For C#CCn1ccc(O)c(Cc2ccccc2)c1=O the results were Rango dissoc inh -9%, Rango-impB inh 0.2% and miR-21 reporter 0%.
COc1ccc(N2CCN(C(=O)c3ccc(CS(=O)(=O)c4ccccc4C)o3)CC2)cc1 was read as Rango dissoc inh 15%, Rango-impB inh 2.5% and miR-21 reporter 11%.

The listing continues:
CCc1nnc(NC(=O)Nc2ccc(Cl)cc2)s1 was read as Rango dissoc inh -15%, Rango-impB inh 2.0%, GLA inh pH 4.5 6 and miR-21 reporter -23%.
Cc1oc(-c2nc3ccccc3n2C)cc1C(=O)c1ccccc1 was read as Rango dissoc inh 4%, Rango-impB inh 0.6%, GLA inh pH 4.5 -2 and miR-21 reporter -15%.
For Cc1n[nH]c(C)c1S(=O)(=O)N1CCc2ccccc21 the results were Rango dissoc inh -7%, Rango-impB inh 1.3%, GLA inh pH 4.5 4 and miR-21 reporter -8%.
COc1cc(NC(=O)c2ccc(OC)c([N+](=O)[O-])c2)ccc1NC(=O)c1cccs1 was read as Rango dissoc inh 1%, Rango-impB inh 0.1%, GLA inh pH 4.5 5 and miR-21 reporter -7%.
Cn1cnnc1Sc1nc2c(c(=O)n(C)c(=O)n2C)n1C was read as Rango dissoc inh 11% and Rango-impB inh -1.6%.
`Cc1ccc2sc(NC(=O)CN3C(=O)CCC3=O)nc2c1C` gave Rango dissoc inh -3%, Rango-impB inh 6.5%, GLA inh pH 4.5 -1 and miR-21 reporter 0%.
`Cc1ccc([N+](=O)[O-])cc1NC(=O)c1cccnc1` gave Rango dissoc inh -6%, Rango-impB inh -0.8% and miR-21 reporter -3%.
For CCc1cc(C(=O)c2ccc(OC)cc2)c(NC(=O)COCC(=O)O)s1 the results were Rango dissoc inh -6%, Rango-impB inh -1.2% and miR-21 reporter 0%.
`O=C(CN1C(=O)CSc2ncccc21)NCCN1CCOCC1` gave Rango dissoc inh 10%, Rango-impB inh 5.1%, GLA inh pH 4.5 4 and miR-21 reporter 1%.
COc1ccc(S(=O)(=O)N(C)C[C@H]2Oc3c(NC(=O)C4CCCCC4)cccc3C(=O)N([C@H](C)CO)C[C@@H]2C)cc1 was read as Rango dissoc inh -9% and Rango-impB inh -2.9%.
For CC1CCCC(C)N1C(=O)CN1CCN(c2nc(-c3ccc(F)cc3)cs2)CC1 (centres undefined) the results were Rango dissoc inh -7%, Rango-impB inh -1.0%, GLA inh pH 4.5 -5 and miR-21 reporter 0%.
Screening Cc1ccccc1NC(=O)c1ccccc1NC(=O)c1ccccc1F returned Rango dissoc inh -4%, Rango-impB inh 3.7% and miR-21 reporter 0%&-12%.
Screening COC(=O)c1cc(Cl)c(NC(=O)c2ccc(F)cc2)cc1OC returned Rango dissoc inh 3%, Rango-impB inh 1.5%, GLA inh pH 4.5 -1 and miR-21 reporter -14%.
Cc1nc2cc(C(F)(F)F)ccc2n1C1CCN(CC(=O)NC(C)(C)C)CC1 was read as Rango dissoc inh -15%, Rango-impB inh inconclusive, GLA inh pH 4.5 -2 and miR-21 reporter inconclusive.
For Cc1ccc(C)c2[nH]c(=O)c(C(c3nnnn3Cc3ccccc3)N3CCc4ccccc4C3)cc12 (centres undefined) the results were Rango dissoc inh -9%, Rango-impB inh inconclusive, GLA inh pH 4.5 -2 and miR-21 reporter 10%.
For O=C(C(=O)N1CCOCC1)c1c[nH]c2ccccc12 the results were Rango dissoc inh 1%, Rango-impB inh inconclusive, GLA inh pH 4.5 6 and miR-21 reporter -3%.
Screening Cn1cnnc1SCC(=O)Nc1ccc(OCc2ccccc2)cc1 returned Rango dissoc inh -5%, Rango-impB inh -0.6%, GLA inh pH 4.5 -6 and miR-21 reporter -26%.
COc1cccc(C(=O)N2CCOCC2)c1 was read as Rango dissoc inh 3%, Rango-impB inh -5.0%, GLA inh pH 4.5 3 and miR-21 reporter -1%.
CCOc1ccc(-n2c(=O)c3c(C)c(C)sc3n(CC(=O)NCc3ccco3)c2=O)cc1 was read as Rango dissoc inh -2%, Rango-impB inh 0.6%, GLA inh pH 4.5 4 and miR-21 reporter 2%.
Screening Cc1cccc(C(=O)NC(=S)NNC(=O)c2cccs2)c1 returned Rango dissoc inh 15%, Rango-impB inh 5.8%, GLA inh pH 4.5 6 and miR-21 reporter -19%.
Screening CC(C)CC(=O)Nc1ccc2nn(-c3ccccc3)nc2c1 returned Rango dissoc inh -2%, Rango-impB inh 3.9%, GLA inh pH 4.5 4 and miR-21 reporter -64%.
For CC1(NC(=O)c2cccc(S(=O)(=O)N3CCN(c4ccccc4)CC3)c2)CCS(=O)(=O)C1 (centres undefined) the results were Rango dissoc inh -3% and Rango-impB inh -4.5%.
Fc1ccc(/C=N/Nc2ccccn2)cc1 was read as Rango dissoc inh -1%, Rango-impB inh 2.7%, GLA inh pH 4.5 -17 and miR-21 reporter -77%.
COc1ccc(NC(=O)C(=O)NCC(=O)Nc2cc(OC)ccc2OC)cc1 was read as Rango dissoc inh -1%, Rango-impB inh -1.8% and miR-21 reporter 0%.
`CC(O)c1cccc(NC(=O)CC(c2ccccc2)c2ccccc2)c1` (centres undefined) gave Rango dissoc inh 0%, Rango-impB inh 4.0% and miR-21 reporter 8%.
For Cc1ccc(-c2nnn(CC(=O)N(CC(=O)NCc3ccccc3)c3cccc(C)c3C)n2)o1 the results were Rango dissoc inh 2%, Rango-impB inh -2.5%, GLA inh pH 4.5 -21 and miR-21 reporter 6%.
For CCOC(=O)c1oc2ccccc2c1CSc1nnnn1-c1ccc(OC)cc1 the results were Rango dissoc inh 18%, Rango-impB inh -1.5%, GLA inh pH 4.5 3 and miR-21 reporter -1%.
`COc1cccc(C(=O)NCCS(=O)(=O)N2CC(C)CC(C)C2)c1` (centres undefined) gave Rango dissoc inh -6% and Rango-impB inh -3.4%.
Screening CCCc1c(NC(=O)Nc2ccc(Cl)cc2Cl)cnn1-c1ccccc1 returned Rango dissoc inh 1%, Rango-impB inh -1.0%, GLA inh pH 4.5 1 and miR-21 reporter 1%.
O=C(COc1ccc(Cl)cc1)Nc1ccc(C(=O)NCc2cccnc2)cc1 was read as Rango dissoc inh 8%, Rango-impB inh -0.2%, GLA inh pH 4.5 -13 and miR-21 reporter 25%.
Screening CC(=O)Nc1ccc2nc(-c3ccccc3)cn2c1 returned Rango dissoc inh 25%, Rango-impB inh 1.8%, GLA inh pH 4.5 6 and miR-21 reporter -30%.
For CC1CCN(CC(C)CNC(=O)c2cc(-c3ccccn3)nc3ccccc23)CC1 (centres undefined) the results were Rango dissoc inh -6%, Rango-impB inh -4.0%, GLA inh pH 4.5 -9 and miR-21 reporter -7%.
CC(=O)N1CCOc2ccc(S(=O)(=O)N3CCC(C(=O)Nc4ccc(F)cc4)CC3)cc21 was read as Rango dissoc inh -1%, Rango-impB inh -1.2% and miR-21 reporter 17%.
For CCc1nnc(NS(=O)(=O)c2ccc(N=Cc3c(C)[nH]n(-c4cccc(Cl)c4)c3=O)cc2)s1 the results were Rango dissoc inh 11%, Rango-impB inh inconclusive, GLA inh pH 4.5 -2 and miR-21 reporter -10%.
For O=S(=O)(NCc1ccccc1)c1cccc2nonc12 the results were Rango dissoc inh 13%, Rango-impB inh -0.4%, GLA inh pH 4.5 11 and miR-21 reporter 8%.
`O=C(COc1ccc(Cl)cc1Br)Nc1cccc(S(=O)(=O)N2CCCC2)c1` gave Rango dissoc inh -7% and Rango-impB inh -0.8%.
COc1cc(OC)cc(C(=O)NCc2n[nH]c(=S)n2-c2ccccc2OC)c1 was read as Rango dissoc inh -5%, Rango-impB inh -2.4%, GLA inh pH 4.5 1 and miR-21 reporter -6%.
Screening CCCC(N)CCCCCC(=O)O (centres undefined) returned Rango dissoc inh 7%, Rango-impB inh -1.3%, GLA inh pH 4.5 -1 and miR-21 reporter -10%.
For Cc1cc(OCC(=O)Nc2ccc3oc(=O)ccc3c2)ccc1Cl the results were Rango dissoc inh 8%, Rango-impB inh -3.0% and miR-21 reporter -10%.
Screening S=C(NCC1CCCO1)Nc1ccccc1Cl (centres undefined) returned Rango dissoc inh -13%, Rango-impB inh 5.9%, GLA inh pH 4.5 0 and miR-21 reporter -11%.
CC1(C)Oc2ccc3ccc(=O)oc3c2-c2cn[nH]c21 was read as Rango dissoc inh 1%, Rango-impB inh -0.9%, GLA inh pH 4.5 -8 and miR-21 reporter -15%.
For OCCOCCn1c(C(CO)Nc2nc(-c3cccc(Br)c3)cs2)nc2ccccc21 (centres undefined) the results were Rango dissoc inh 7% and Rango-impB inh -1.3%.
`O=C(Cn1nc(Cc2ccncc2)c2ccccc2c1=O)Nc1cccnc1Cl` gave Rango dissoc inh 0%, Rango-impB inh -0.5%, GLA inh pH 4.5 -2 and miR-21 reporter -1%.
`CC1=NNC(=O)C1CCC(=O)N/N=C/c1ccc(Cl)cc1Cl` (centres undefined) gave Rango dissoc inh -15%, Rango-impB inh 0.0%, GLA inh pH 4.5 -5 and miR-21 reporter -9%.
For CCN(c1ccccc1)S(=O)(=O)c1c(C)noc1C the results were Rango dissoc inh 9% and Rango-impB inh 2.7%.
Screening O=C(COC(=O)c1cc([N+](=O)[O-])ccc1Cl)NCCc1ccccc1 returned Rango dissoc inh -6% and Rango-impB inh 5.1%.
Screening COc1ccc(NS(=O)(=O)c2coc(C(N)=O)c2)cc1Cl returned Rango dissoc inh 2%, Rango-impB inh -0.6%, GLA inh pH 4.5 -2 and miR-21 reporter -8%.
For Cc1ccc(S(=O)(=O)NC(=NC2CCCCC2)c2ccc(F)cc2)cc1 the results were Rango dissoc inh 3%, Rango-impB inh -0.4% and miR-21 reporter 2%.
For COc1cc(NC(=S)N2CCN(C)CC2)c(OC)cc1Cl the results were Rango dissoc inh -3%, Rango-impB inh -0.5%, GLA inh pH 4.5 8 and miR-21 reporter -1%.
Cc1nc2ncnn2c(C)c1CCC(=O)N1CC(C)CC(C)C1 (centres undefined) was read as Rango dissoc inh -6%, Rango-impB inh 0.5%, GLA inh pH 4.5 -8 and miR-21 reporter -3%.
Screening O=C(/C=C/NNC(=O)c1ccccc1)c1ccc([N+](=O)[O-])cc1 returned Rango dissoc inh 6%, Rango-impB inh 1.3%, GLA inh pH 4.5 1 and miR-21 reporter -11%.
O=C(CSc1ccccn1)N/N=C/c1cc([N+](=O)[O-])ccc1O was read as Rango dissoc inh -4%, Rango-impB inh -3.9%, GLA inh pH 4.5 -2 and miR-21 reporter 23%.
`COc1cc2nc(Nc3ccc(F)cc3)nc(N)c2cc1OC` gave Rango dissoc inh 14%, Rango-impB inh -1.0% and miR-21 reporter 6%&15%.

Screening results (PubChem)
